# HSV augment: HSV replication enhancement; HSV replication augmentation in cells, fold increase; maximum fold increase; actives 0.005% (n = 220,000);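 active = peak rise of 1.5-fold or more in the series; inconclusive = self-fluorescent or not available for retest; tested in PC3 cells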;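 note: first round at 10 µM; read as green reporter fluorescence; hits show the peak of a series up to 25 µM; 1 = signal of infected wells without compound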
# RGS16-Gao: RGS16-Galphao interaction regulator (human); O15492+P09471; bead-based flow cytometry RGS16-Galphao binding, fluorescence; actives lie on both sides; binding response (% of control), % at 10 µM; actives 0.38% (n = 220,000); AID 1441;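 active = below 25% or above 175%, edge rows of some plates excepted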;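 note: Galphao activated by GDP with aluminum fluoride before binding; 100% = wells without compound and 0% = beads without RGS; some results beyond the cut were filed as inactive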
# Target sequence (O15492 whole entry, looked up): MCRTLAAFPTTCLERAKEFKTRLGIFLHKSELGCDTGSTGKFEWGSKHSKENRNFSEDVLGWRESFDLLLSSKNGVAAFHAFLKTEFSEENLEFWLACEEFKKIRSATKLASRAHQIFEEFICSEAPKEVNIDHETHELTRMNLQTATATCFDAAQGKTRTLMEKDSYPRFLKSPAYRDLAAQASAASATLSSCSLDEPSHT
# Target sequence (P09471 whole entry, looked up): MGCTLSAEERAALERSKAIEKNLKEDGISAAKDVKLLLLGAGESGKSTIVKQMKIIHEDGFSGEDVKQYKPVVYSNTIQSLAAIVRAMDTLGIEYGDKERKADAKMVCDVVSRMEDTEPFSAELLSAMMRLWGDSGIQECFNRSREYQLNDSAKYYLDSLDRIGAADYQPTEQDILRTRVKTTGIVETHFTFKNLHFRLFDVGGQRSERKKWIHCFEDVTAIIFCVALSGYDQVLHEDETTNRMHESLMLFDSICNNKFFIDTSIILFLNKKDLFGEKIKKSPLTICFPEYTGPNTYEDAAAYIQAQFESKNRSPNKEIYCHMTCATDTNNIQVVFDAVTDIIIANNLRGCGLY
# GALR2 ag: GALR2 (human) receptor agonism | activation, %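 (tested at 5 µM)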 | GALR2-expressing cells, agonist activation read-out | actives 0.48% (n = 140,000);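 active = above mean plus 3 SD of all compounds, about 5% in these data, not always enough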;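 note: 0% = vehicle buffer wells and 100% = reference agonist at full effect; tested in CHO reporter cells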
# Target sequence (O43603 whole entry, looked up): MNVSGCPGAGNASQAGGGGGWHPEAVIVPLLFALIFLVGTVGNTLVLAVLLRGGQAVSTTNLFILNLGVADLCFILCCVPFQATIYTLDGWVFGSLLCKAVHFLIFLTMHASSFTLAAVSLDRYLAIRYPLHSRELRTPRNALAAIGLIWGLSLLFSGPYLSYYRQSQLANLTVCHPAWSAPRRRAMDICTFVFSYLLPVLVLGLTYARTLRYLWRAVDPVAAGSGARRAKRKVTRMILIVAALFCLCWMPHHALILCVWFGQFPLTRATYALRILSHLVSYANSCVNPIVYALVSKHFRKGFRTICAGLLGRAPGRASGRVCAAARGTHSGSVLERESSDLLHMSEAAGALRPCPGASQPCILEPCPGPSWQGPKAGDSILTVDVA
# Insulin prom inh: TRM-6 insulin promoter activity inhibition | inhibition, % at 2 µM | actives 0.9% (n = 130,000) | TRM-6 cells (human fetal islet line), insulin promoter-eGFP reporter, imaging; reporter expression induced with tamoxifen;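 active = inhibition above the mean plus 3 SD, with well images judged a real hit on visual review, cut at about 60% in these data, passing the limit was not always enough; inconclusive = inhibition over the cutoff but images rejected on review; inactive = inhibition not above the cutoff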
# PKD1 kinase inh: inhibitors of human PKD1 kinase | Q15139 | AID 797 | actives 0.056% (n = 200,000) | PKD1 kinase fluorescence polarization assay | inhibition, %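 (about 10 µM by stock and volumes)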;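 active = inhibition of 50% or more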;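 note: controls were vehicle for no effect and a reference inhibitor for full effect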
# Insulin prom inh cell count: also measured in Insulin prom inh; calls as there; normalized cell count, %; measured here: cell count, toxicity; reference of the scale not given here;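 cells exposed to compound for 48 h; stained nuclei by imaging scaled within each plate; lower means fewer cells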
# HSV augment primary fold: further read-out of HSV augment, marked with its call; fold increase; compound at 10 µM; measured here: primary screen fold increase 10 uM; tested in PC3 cells;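 GFP signal in the first replicate; 1 = infected wells without compound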
# Numbers without * were called inactive; i = inactive; ? = inconclusive; nt = no result given. Compounds were not picked by outcome; overall some 1.3% were active at least once.
SMILES,HSV augment,HSV augment primary fold,RGS16-Gao,GALR2 ag,Insulin prom inh,Insulin prom inh cell count,PKD1 kinase inh
Cc1cc(NC(=O)CN2CCN(C/C=C/c3ccccc3)CC2)c([N+](=O)[O-])cc1C,i,1.1,106,-0.9,7,116,-4
O=[N+]([O-])c1ccccc1NC1CCN(Cc2ccccc2)CC1,i,0.91,112,nt,nt,nt,nt
Cc1noc(C)c1C(=O)OCC(=O)NC(=O)NC12CC3CC(CC(C3)C1)C2,i,0.97,100,-0.6,nt,nt,2
CCN(CC)c1ccc(CNC23CN4CN(CN(C4)C2)C3)cc1,i,0.79,106,-0.7,-18,107,-2
Cc1nn(-c2ccccc2)nc1-c1nnc(-c2ccc(C(F)(F)F)cc2)o1,i,1.1,97,nt,nt,nt,nt
O=C(Nc1ccccc1)c1ccc2ccccc2n1,nt,nt,108,nt,0,101,0
C/C(Cc1ccccc1)=N\NC(=O)CNC(=O)/C=C\c1ccccc1,i,1.1,103,nt,nt,nt,nt
COc1cc(OC)cc(-c2nn[nH]n2)c1,i,0.94,99,0.1,3,82,-2
Cc1onc(-c2ccccc2Cl)c1C(=O)N1CCN(C(=O)c2ccco2)CC1,i,0.93,101,0.3,nt,nt,-6
CCOC(=O)N/N=C(/C)c1ccc(N2C(=O)C3CCCCC3C2=O)cc1 (centres undefined),i,0.96,102,nt,nt,nt,-1
O=C(CSc1nc2cc([N+](=O)[O-])ccc2n1-c1ccccc1)NCc1ccc2c(c1)OCO2,i,1,77,-1.3,nt,nt,3
C/C(=N\Nc1ccc(C(=O)O)cc1)c1ccc(S(=O)(=O)NCc2ccco2)cc1,i,1.1,101,nt,nt,nt,nt
O=C(NC1CCCCC1)c1cc(-c2ccccn2)nc2ccccc12,i,1,74,nt,-44,54,1
CCOCCCNC(=O)C(NC(=O)c1ccccc1O)c1ccccc1 (centres undefined),i,0.96,88,nt,nt,nt,-6
CC(Oc1ccc(F)cc1)C(=O)Nc1sc2c(c1C(=O)NCc1cccnc1)CCCC2 (centres undefined),i,1.1,104,-2.2,nt,nt,-3
CCCn1c(N2CCN(C(=O)N3CCCCC3)CC2)nc2ccccc21,i,1,101,0.5,nt,nt,-3
COC(=O)c1c(C)[nH]c(C(=O)/C=C/c2ccccc2Cl)c1C,i,1,103,nt,nt,nt,nt
CCCCCCN=CC1=C(O)C(C(=O)OC)C(C)(C)CC1=O (centres undefined),i,0.98,101,-2.2,93*,63*,0
O=C(c1ccc(F)cc1)C(CN1CCOCC1)c1ccccc1 (centres undefined),i,0.48,101,-1.2,nt,nt,-14
FC(F)(F)C(Oc1nc(Nc2ccc(Cl)cc2)nc(N2CCOCC2)n1)C(F)(F)F,i,1,99,-1.0,-279,69,-7
Cc1cc(C(=O)OC2CCOC2=O)c2ccccc2n1 (centres undefined),i,0.95,107,-1.3,16,90,4
Cn1c(N)c(C(=O)/C=C/c2ccccc2)c(=O)[nH]c1=O,i,0.97,103,nt,nt,nt,nt
CCC(C)NC(=O)CCn1c(-c2ccccc2)cc(C(C)=O)c1C (centres undefined),i,1.1,114,-0.3,-67,102,-7
COc1ccc(CCCc2nnc(SCC(=O)Nc3cccc(C)c3)o2)cc1,i,0.92,121,-1.5,13,85,3
Cn1cc(P(=O)(N2CCOCC2)N2CCOCC2)cc1P(=S)(N1CCOCC1)N1CCOCC1,i,0.79,93,nt,nt,nt,-3
CCCc1cc(=O)[nH]c(SCCOC(=O)c2ccccc2)n1,i,0.92,104,-0.6,40,71,-7
CN(Cc1ccon1)Cc1cn(C)nc1-c1cccc(Cl)c1,i,1.1,89,nt,-23,79,2
Fc1ccc(CNc2ncnc3c2cnn3-c2ccccc2)cc1,i,0.89,102,-4.7,-30,90,-2
CCCCCC(=O)Nc1ccc2oc(-c3cccnc3)nc2c1,i,0.8,98,-1.1,56,129,5
C=CCN(C(=O)c1ccccn1)C(C(=O)NCc1ccccc1)c1ccccc1F (centres undefined),i,1.1,107,nt,nt,nt,-1
CCc1ccc(N(C2C=CS(=O)(=O)C2)S(=O)(=O)c2ccccc2)cc1 (centres undefined),i,0.89,97,-1.7,-35,133,-7
O=C(NNC(=O)c1ccc(Cl)cc1Cl)Nc1ccccc1,i,1.1,59,-1.5,36,103,-2
Cn1nc([N+](=O)[O-])nc1Sc1ccc(Cl)cc1,i,1.3,84,0.2,nt,nt,1
CCC1CCCCN1CCCNC(=O)c1ccc(CS(=O)(=O)Cc2ccccc2F)o1 (centres undefined),i,1.1,98,-1.1,-194,56,-4
Cc1ccc(Cn2ccc(=O)c(OCc3c(Cl)cccc3Cl)c2C)cc1,i,1.1,86,-1.9,-41,44,0
Cc1ccc(C)c(Nc2nc3nonc3nc2N2CCOCC2)c1,nt,nt,101,-2.1,-25,116,-7
O=C(CN1CCN(C/C=C/c2ccccc2)CC1)NC(=O)NC1CCCCC1,i,0.97,107,nt,55,31,4
Cc1cccc(OCC(=O)N2CCN(c3nnc(-c4ccccc4)c4ccccc34)CC2)c1,i,1,92,nt,nt,nt,nt
COc1ccccc1OCCCC(=O)NC(C)c1ccccc1 (centres undefined),i,0.93,101,nt,nt,nt,-1
COc1ccc(-c2noc(CSc3nc4ccccc4c(=O)n3-c3ccc(C)cc3)n2)cc1,i,1.1,98,-0.1,nt,nt,-9
COc1ccccc1N1CCN(C(=O)COc2cccc(C)c2C)CC1,i,1.1,97,nt,-46,98,1
CC(=O)Nc1ccc2sc(C)nc2c1,i,0.78,99,nt,nt,nt,nt
COC(=O)C1=C(C)NC(=O)NC1C1CC=CCC1 (centres undefined),i,1.1,102,-2.2,nt,nt,-3
CNC(=O)COC(=O)c1cc(-c2ccco2)nc2ccccc12,i,1.2,95,nt,nt,nt,nt
COc1ccc(CC(=O)Nn2c(-c3ccccc3)nc3ccccc3c2=O)cc1,i,0.91,91,-1.0,-4,91,-14
CCOc1ccc(-n2cc(C(=O)NCc3ccco3)c3cc(OC)c(OC)cc3c2=O)cc1,i,0.98,102,-1.1,27,55,0
O=C(CSc1ccc2ccccc2c1)Nc1ccncc1,nt,nt,106,0.3,-53,113,-10
NCc1c(O)ccc2ccccc12,i,1.1,99,nt,nt,nt,nt
Cc1ccc(C(=O)NNC(=O)c2nn(-c3ccc(F)cc3)ccc2=O)cc1,i,0.91,100,nt,nt,nt,nt
Cc1cccc(N2CCN(S(=O)(=O)c3ccc4c(c3)CCN4C(=O)CCC(=O)O)CC2)c1C,i,0.92,101,-2.5,nt,nt,-4
COc1ccc(CN2CCNC(=O)C2CC(=O)NCCCn2cccn2)c(OC)c1 (centres undefined),i,0.98,100,nt,nt,nt,-1
O=C(c1ccccc1Br)N1CCN(c2ccccc2)CC1,i,0.96,103,-1.6,-29,116,-1
CCOC(=O)C1(Cc2ccc(OC)cc2)CCN(C(=O)CN2CCN(CC)CC2)CC1,i,0.92,102,nt,nt,nt,-1
O=C(NCCc1ccco1)c1nn(Cc2ccccc2)c(=O)c2ccccc12,i,0.91,89,-0.7,nt,nt,-3
O=c1oc2ccccc2c(N2CCCCC2)c1CN1CCCCC1,i,0.99,108,-1.8,-38,144,2
CC(C)NC(=O)NS(=O)(=O)c1cnccc1N1CCCCC1,i,0.96,87,-1.6,-69,81,-12
O=C(CCC(=O)c1cccs1)OCc1nc2ccccc2s1,i,1,103,0.6,-6,66,4
CS(=O)(=O)N1CCN(C(=O)c2cc(-c3cccs3)nc3ccccc23)CC1,i,1,99,-1.1,-94,89,-5
COc1ccc(NC(=S)N(CCN2CCOCC2)Cc2ccccc2F)cc1,i,0.83,98,nt,-92,127,-4
COc1ccccc1C(=O)n1nc(-c2cccnc2)nc1N,i,1,104,-2.5,nt,nt,-12
# Other structures.
SMILES,HSV augment,HSV augment primary fold,RGS16-Gao,GALR2 ag,Insulin prom inh,Insulin prom inh cell count,PKD1 kinase inh
COc1cc2c(cc1OC)C1=C(C#N)CCC(=NC(=O)c3ccc(Cl)cc3)N1CC2,i,0.93,99,0.5,25,143,-13
Cc1cc(=O)[nH]c(/N=C(\N)Nc2ccc3c(c2)OCCO3)n1,i,1,113,nt,nt,nt,-5
COc1ccc(CCNC(=S)NCCc2ccc(OC)c(OC)c2)cc1OC,i,1.3,102,nt,nt,nt,nt
CCCOCC1CC2(CC(C)(c3csc(N)n3)OC2=O)C(=O)O1 (centres undefined),i,0.92,104,-1.8,44,85,-14
Cc1ccc(-c2cc(-c3n[nH]c(=S)o3)c3ccccc3n2)cc1,i,1,97,-0.5,-41,119,-12
c1ccc2c(c1)ncn2-c1ncnc2sc3c(c12)CCCC3,i,0.98,106,-2.1,21,59,5
O=C(c1cccs1)N(Cc1ccco1)c1nc(-c2ccc(F)cc2)cs1,i,1,103,-2.2,22,70,-2
Cc1nnc(SCc2ccccc2F)n1NCc1cccs1,i,0.82,99,-1.8,4,144,-2
COc1ccccc1/C=N/NC(=O)c1cccc(OC(F)(F)C(F)F)c1,i,0.9,44,-0.4,-7,110,1
CSc1ccc(/C=N/NC(=O)CNc2ccc3ccccc3c2)cc1,i,1.1,105,0.6,-369,72,-16
N#Cc1cccc(C(c2nnnn2C2CCCC2)N2CCC(Cc3ccccc3)CC2)c1 (centres undefined),i,0.92,104,-0.4,56,106,3
COc1ccccc1NS(=O)(=O)c1ccc(N/N=C/C=C/c2ccccc2[N+](=O)[O-])c([N+](=O)[O-])c1,i,1.1,101,nt,44,99,1
COc1cc(OC)c(OC)cc1/C=C1\Oc2cc(OS(C)(=O)=O)ccc2C1=O,?,nt,97,nt,nt,nt,nt
NC1=NC(=O)C(CC(=O)Nc2ccc3c(c2)OCO3)S1 (centres undefined),i,1.1,93,nt,nt,nt,-4
COc1ccc(OCc2nnc(SCC(=O)O)n2N)cc1,i,0.81,100,-3.1,-42,146,-16

# Entries of single compounds, quoted from the list. Order of screens: HSV augment	HSV augment primary fold	RGS16-Gao	GALR2 ag	Insulin prom inh	Insulin prom inh cell count	PKD1 kinase inh
# Record of N#Cc1cccc(C(c2nnnn2C2CCCC2)N2CCC(Cc3ccccc3)CC2)c1 (centres undefined) → i	0.92	104	-0.4	56	106	3
# Record of Cc1cc(=O)[nH]c(/N=C(\N)Nc2ccc3c(c2)OCCO3)n1 → i	1	113	nt	nt	nt	-5
# Record of COc1ccccc1/C=N/NC(=O)c1cccc(OC(F)(F)C(F)F)c1 → i	0.9	44	-0.4	-7	110	1
# Record of COc1ccccc1NS(=O)(=O)c1ccc(N/N=C/C=C/c2ccccc2[N+](=O)[O-])c([N+](=O)[O-])c1 → i	1.1	101	nt	44	99	1
# Record of O=C(c1cccs1)N(Cc1ccco1)c1nc(-c2ccc(F)cc2)cs1 → i	1	103	-2.2	22	70	-2

# Going on with the list:
SMILES,HSV augment,HSV augment primary fold,RGS16-Gao,GALR2 ag,Insulin prom inh,Insulin prom inh cell count,PKD1 kinase inh
CCOc1ccc(NC(=O)CSc2ncnc3c2sc2ccccc23)cc1,i,1.1,107,-1.3,11,139,8
CC(=O)c1cc(NC(=O)c2ccccc2)c(=O)oc1/C=C/N(C)C,i,1.1,98,-1.8,-3,97,-10
COc1ccccc1N1CCN(C(=O)CN(Cc2ccc(Cl)cc2)S(C)(=O)=O)CC1,i,0.84,101,0.1,-40,101,0
Cc1nn(CC(=O)Nc2ccc3c(c2)oc2ccccc23)c(=O)c2ccccc12,nt,nt,96,-2.2,-18,118,4
COc1ccccc1Nc1nnc(C)c(=O)[nH]1,i,0.97,110,-0.5,7,61,0
CCc1ccc2n(-c3ccc(OC)cc3)c([S-])c(C(=O)Nc3cc(C)cc(C)c3)[n+]2c1,i,1,89,nt,nt,nt,nt
CCc1ccc(-c2nc(C)c(CCO)c(=O)[nH]2)cc1,i,1.1,107,nt,nt,nt,-5
N[C@@H](CO)c1cn([C@@H](Cc2cc3ccccc3[nH]2)C(=O)N2CCNCC2)nn1,i,1,100,nt,nt,nt,nt
CN(C)c1ccc(/C=C(\C#N)c2ccccn2)cc1,nt,nt,135,-1.1,16,98,-3
CCCN(CCC)S(=O)(=O)c1ccc(C(=O)Nc2nnc(COC)o2)cc1,i,0.91,109,nt,nt,nt,-1
Cc1cccc(NC(=S)N2CCCCCC2)c1,i,0.95,98,-2.3,10,79,-7
CC(C)=NN1C(=O)c2ccccc2NC1(C)C,i,0.95,120,nt,nt,nt,nt
c1csc(CN2CCN(Cc3cccs3)C2c2cccs2)c1,i,0.85,99,-3.0,nt,nt,4
Cc1cccc(OCC(=O)O/N=C(\N)c2ccc(Br)cc2)c1,i,1,103,nt,nt,nt,nt
COC(=O)N/N=C/c1ccc(OCCSc2ccc(Cl)cc2)c(OC)c1,i,1,104,-1.8,16,97,-7
O=C(CSc1nc2cc(Cl)ccc2s1)N1CCN(C(=O)c2ccco2)CC1,i,0.92,97,-1.2,-61,116,-13
CCN(C(=O)c1cccc(F)c1)c1ccccc1C,i,0.98,106,-3.4,50,70,-3
